Bioassay records as filed in PubChem.
Rango dissoc inh: qHTS Assay for Inhibitors of RanGTP induced Rango (Ran-regulated importin-beta cargo) - Importin beta complex dissociation; 0.071% of 340,000 active; Snurportin-1 (Homo sapiens) + GTP-binding nuclear protein Ran (Homo sapiens) + Importin …; Potency, µM (titrated, usually from 46.1 µM), for inactives: top-dose activity change, negative = inhibition; Biochemical FRET Rango-importin beta, RanGTP-induced dissociation; active means falling FRET ratio curve, often poorly fitted, with flat reads before Ran was added; inconclusive means other falling curves, or compound fluorescence or quenching; inactive means flat or rising ratio curve;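 note: potency is the fitted concentration of half-maximal effect; % of control where 0% means no effect; nearly all actives have a fitted effect of over 45% in size; -100% = wells without RanGTP and RCC1; the record marks most hits as doubtful in a second field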
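Rango FRET biosensor (snurportin-1 IBB flanked by N-terminal EYFP and C-terminal CFP10) at 0.1 uM, with 0.25 uM importin beta in PBS, 1mM DTT, 0.02% Tween-20, 0.1% BSA. 0.6 uM Ran, 2mM GTP and 0.2 uM RCC1 were then added for 45 min at room temperature. Inhibition read as loss of FRET rise.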
GLA inh pH 4.5: qHTS Assay for Inhibitors of Human alpha-Galactosidase at pH 4.5 | purified enzyme, 4-MU-alpha-Gal fluorescence, pH 4.5 | AID 1467, 2008 | Alpha-galactosidase A (Homo sapiens), P06280 | 230,000 tested, under 10 active | activity change, negative = inhibition, % at 105 µM; inconclusive = small, poorly fitted or top-dose-only inhibition, or a rising curve; inactive = flat fitted curve, though single readings scatter; no compound was filed as active;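 note: 0% = full activity with enzyme and -100% = basal without enzyme; dose as in the result columns while the protocol names 77 µM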
miR-21 reporter: qHTS Assay for Modulators of miRNAs and/orActivators of miR-21; HeLa miR-21 FLuc reporter, luciferase, 48 h; Potency, µM (doses to about 38.3 µM), for inactives: at the highest dose reporter change, positive = more light; 340,000 tested, under 10 active; AID 2288, 2010; active = well fitted rising curve with a large enough effect; inconclusive = small, poorly fitted or top-dose-only effect; inactive = no such curve, though single readings can be large or run the other way;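 note: % of control where 0% means no effect; miR-21 action dims this reporter so a rising signal means less miR-21 action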
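HeLa cells stably expressing CMV-driven firefly luciferase with a downstream miR-21 binding sequence, endogenously expressing miR-21, were treated with titrations (up to about 40uM final) for 48 hours at 37 degree Celsius. Luciferase luminescence was read after lysis.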
Rango complex inh: qHTS Assay for Inhibitors of Rango (Ran-regulated importin-beta cargo) - Importin beta complex formation | Importin subunit beta-1 (Homo sapiens), Q14974 | Rango CFP/YFP FRET sensor + importin beta, 45 min | Potency, µM (series often up to 92.2 µM), without a hit: at the top dose inhibition of complex formation | 0.031% of 340,000 active | AID 540263, 2011; active = rising FRET ratio curve, often small or poorly fitted; inconclusive = mostly compound fluorescence or quenching in the first reads; inactive = flat curves in all reads;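 note: potency is the fitted concentration of half-maximal effect; 0% = DMSO wells and 100% = buffer wells lacking importin beta; nearly all actives have a fitted effect of over 15% in size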
Target sequence (Q14974 whole entry, looked up): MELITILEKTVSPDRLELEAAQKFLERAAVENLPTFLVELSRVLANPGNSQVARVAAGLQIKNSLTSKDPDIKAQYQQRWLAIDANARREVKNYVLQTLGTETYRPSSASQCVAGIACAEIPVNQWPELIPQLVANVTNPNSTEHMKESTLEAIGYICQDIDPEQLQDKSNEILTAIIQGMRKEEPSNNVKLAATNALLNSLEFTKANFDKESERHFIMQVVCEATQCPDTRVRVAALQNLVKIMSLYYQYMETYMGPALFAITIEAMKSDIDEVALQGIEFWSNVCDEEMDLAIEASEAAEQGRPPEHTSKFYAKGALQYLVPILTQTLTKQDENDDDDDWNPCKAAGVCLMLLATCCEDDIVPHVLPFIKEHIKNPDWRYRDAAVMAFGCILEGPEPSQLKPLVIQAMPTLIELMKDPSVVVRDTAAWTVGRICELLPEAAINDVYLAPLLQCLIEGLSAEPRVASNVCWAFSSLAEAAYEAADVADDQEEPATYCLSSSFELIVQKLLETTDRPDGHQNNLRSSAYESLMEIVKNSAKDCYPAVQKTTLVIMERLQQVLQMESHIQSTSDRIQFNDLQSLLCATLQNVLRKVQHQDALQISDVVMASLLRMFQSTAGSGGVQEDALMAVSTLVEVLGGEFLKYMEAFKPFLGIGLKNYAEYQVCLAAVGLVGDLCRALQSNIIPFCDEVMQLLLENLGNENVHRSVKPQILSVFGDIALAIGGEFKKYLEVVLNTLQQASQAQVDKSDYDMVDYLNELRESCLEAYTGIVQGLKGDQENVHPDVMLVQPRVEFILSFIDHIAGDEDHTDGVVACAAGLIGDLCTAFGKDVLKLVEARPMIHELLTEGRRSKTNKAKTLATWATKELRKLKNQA
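Inhibition scored from the CFP 486 nm/YFP 530 nm FRET ratio 45 min after adding 0.125 microM importin beta to 50 nM Rango biosensor preincubated 5 min with compound (room temperature, PBS with DTT, Tween-20, BSA). No-importin wells as positive control.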
* = called active by the depositor; ? = inconclusive; . = not tested or not shown; & = joins results of further samples; [ ] = remark or other dose. This is a subset, so the mix of outcomes need not match the whole.

Rango dissoc inh,GLA inh pH 4.5,miR-21 reporter,Rango complex inh,Molecule
13.8%,0.1,1.7%,?,O=C(c1ccccc1-c1ncc[nH]1)N1CCc2c([nH]c3ccccc23)C1c1ccccn1 (stereo not drawn)
-1.9%,-6.7,0.0%,0.3%,CC(NCc1ccc(S(N)(=O)=O)cc1)C(=O)N1CCc2ccccc21 (stereo not drawn)
-0.3%,.,0.4%,-0.9%,CCCN1CCC(CCOc2ccccc2)(C(=O)OCC)CC1
-22.2%,9.1,.,-0.8%,COC/C=C/C1=CC2=CC(=O)C(C)(OC(=O)c3cnc4ccccc4n3)C(=O)C2=CN1CC1CC1 (stereo not drawn)
2.6%,-8.1,3.2%,-0.5%,Cc1ccc2oc(=O)n(CC(=O)N3CCOCC3)c2c1
1.2%,.,-0.4%,-2.0%,Cc1ccc(NC(=O)CC2(CC(=O)O)CCCC2)cc1
-1.0%,-11.0,-4.1%,-2.3%,COCCn1c(COC)nc2ccccc21
?,.,-2.7%,-2.2%,CCC1CCCCN1C(=O)c1ccc(OC2CCN(Cc3ccccn3)CC2)cc1 (stereo not drawn)
3.1%,.,.,3.7%,CN(C)CCCn1c2c(c(SCC(=O)Nc3cccc4ccccc34)nc1=O)CCCC2
-12.6%,-3.4,2.4%,-1.0%,CC(C)(CSc1ccccn1)NS(=O)(=O)c1ccccc1
1.3%,1.9,-23.8%,0.3%,CCN(CC)S(=O)(=O)c1cccc(C(=O)Nc2ccc3c(c2)OCO3)c1
-8.1%,-9.6,8.0%&7.1%,2.6%,COC(=O)c1ccc(NC(=O)CN2CCN(c3ccc(Cl)cc3)CC2)cc1
-14.0%,7.8,0.1%,-3.1%,CCOC(=O)c1c(NC(=O)C2CC(Cl)=CCC2C(=O)O)sc2c1CC(C)(C)OC2 (stereo not drawn)
-3.4%,.,1.6%,?,O=C(O)c1[nH]c2ccccc2c1C(c1cc(Cl)cc([N+](=O)[O-])c1O)c1c(C(=O)O)[nH]c2ccccc12
8.9%,-23.7,-92.8%,-3.7%,COc1ccc(C(=O)Nc2ccc3cn[nH]c3c2)c(OC)c1
-7.4%,.,-0.2%,2.3%,COc1ccc(N2CCN(S(=O)(=O)c3c(C)n(C)c(=O)n(C)c3=O)CC2)cc1
-18.2%,3.1,-5.6%,-3.1%,O=[N+]([O-])c1ccc(S(=O)(=O)Nc2nc3ccccc3nc2Nc2ccccc2)cc1
-3.4%,-1.3,-34.6%,6.7%,O=C(N/N=C/c1ccc2c(c1)OCO2)c1ccccn1
8.1%,8.8,-18.4%,-5.2%,COc1cc(C(=O)Nc2ccc(N(C)C)cc2)c([N+](=O)[O-])cc1OC
9.8%,-4.4,2.5%,3.6%,CN1CCN(c2ccc(S(=O)(=O)N3CCCCC3)cc2[N+](=O)[O-])CC1
-11.8%,0.4,-17.7%,?,Cc1cc2nc(-c3ccc(SCC(=O)Nc4ccc(S(=O)(=O)NC5CC5)cc4)nc3)[nH]c2cc1C
-2.9%,7.5,-8.3%,-0.8%,CC(C)Oc1ccc2ccccc2c1C=O
-2.7%,-1.8,14.7%,-2.2%,Cc1cc(C)c2ccc(N)nc2c1O
1.5%,-5.6,-3.4%,2.3%,CN1C(=S)SC(/[N+]([O-])=C/c2cccnc2)C1(C)C (stereo not drawn)
1.7%,-12.0,-5.0%,5.4%,O=c1c2c([N+](=O)[O-])cc([N+](=O)[O-])cc2sn1-c1ccc(Br)cc1
4.2%,4.8,0.2%,?,O=C(NCC1CCCO1)c1nn2c(c1Cl)NC(c1ccc(F)cc1)CC2C(F)(F)F (stereo not drawn)
5.5%,.,2.3%,-1.2%,O=C(N/N=C/c1cc(Br)c(O)c(Br)c1)c1cccnc1
5.6%,.,-2.7%,5.1%,CC1CCCC(NC(=O)C2CCN(S(=O)(=O)c3cccc4nonc34)CC2)C1C (stereo not drawn)
-5.4%,3.0,1.0%,2.6%,CNC(=O)C1=NCCCc2cc(OC)c(OC)cc21
-11.6%,.,9.0%,0.4%,COc1ccccc1CNC(=O)CN1C(=O)NC(C)(c2ccc(C(C)(C)C)cc2)C1=O (stereo not drawn)
-9.2%,-10.7,0.3%,-0.1%,CNC(=O)c1ccccc1F
7.9%,2.9,-1.1%,4.1%,COc1ccc(Br)cc1S(=O)(=O)Nc1ncccc1C
12.8%,2.6,2.6%,?,COc1ccc(OCC(=O)N2CCN(C(=O)c3ccccc3)CC2)cc1
0.5%,-2.3,-1.2%,-1.6%,CCOC(=O)c1ccccc1NC(=O)CN(c1cccc(OC)c1)S(C)(=O)=O
-1.9%,.,0.5%,3.0%,O=C(NNS(=O)(=O)c1ccc(F)cc1)c1ccc([N+](=O)[O-])cc1
-8.6%,0.2,-35.1%,0.7%,COC(=O)c1ccc(NC(=O)c2cccc(OC)c2)cc1
9.7%,.,.,-1.8%,COc1ccc(NC(=O)CN(C)C2=NS(=O)(=O)c3ccccc32)cc1Cl
1.8%,.,.,2.3%,Cc1cc(NC(=O)CSCC(=O)Nc2nc3ccccc3s2)no1
-13.8%,3.0,-0.3%,2.1%,C=CCN(CC=C)S(=O)(=O)c1ccc(C(=O)Nc2sc3c(c2C(N)=O)CCCCC3)cc1
2.2%,.,4.1%,-6.4%,COc1ccc(C(=O)Nc2ccc3c(c2)C(=O)NC3=O)cc1

Given with two lines to a compound: 2 of the compounds above.
Second line of a record – Rango dissoc inh	GLA inh pH 4.5	miR-21 reporter	Rango complex inh
COc1ccc(NC(=O)CN(C)C2=NS(=O)(=O)c3ccccc32)cc1Cl
  9.7%	.	.	-1.8%
Cc1cc(NC(=O)CSCC(=O)Nc2nc3ccccc3s2)no1
  1.8%	.	.	2.3%

New compounds follow
Rango dissoc inh,GLA inh pH 4.5,miR-21 reporter,Rango complex inh,Molecule
-4.7%,.,-0.2%,-1.0%,COCCCNC(=O)CN(c1ccc(F)cc1)S(=O)(=O)c1ccc2c(c1)OCCO2
0.2%,.,10.2%,-1.2%,NC(=O)C1CCN(C(=O)Cc2ccsc2)CC1
2.3%,.,.,0.1%,O=C(NCCCN1CCCC1=O)c1ccc(S(=O)(=O)Nc2ccccc2)cc1
-3.3%,-9.1,-11.2%,-0.1%,CCn1c(COc2ccc(Cl)cc2)nnc1SCC(=O)Nc1ccc2c(c1)OCO2
?,2.9,-1.5%,0.1%,COC(=O)c1cn[nH]c1N
-12.1%,5.4,-25.3%,-3.8%,O=C1CN(C(=O)COC(=O)c2cccc(OCc3ccccc3)c2)c2ccccc2N1
3.4%,2.9,-8.2%,-5.8%,Nc1ccccc1-c1nnn(CC(=O)N2CCCc3ccccc32)n1
-1.1%,.,.,-2.4%,COc1ccc2oc(C(=O)N3CCN(C(c4ccccc4)c4ccccc4)CC3)c(C)c2c1
-4.2%,.,-0.3%,0.6%,CC1(C)C(=O)N(c2ccccc2Cl)C(=O)c2ccccc21
24.6%,.,.,0.3%,COc1ccc(/C=C/C(=O)OCC(=O)c2ccc(S(=O)(=O)N3CCCCC3)cc2)cc1OC
1.1%,-1.5,1.0%,0.1%,COc1cccc2c1OCC(CN1CCN(CCC(C)C)C(CCO)C1)=C2 (stereo not drawn)
3.0%,0.2,-0.4%,-0.6%,CC(NCCC1(C(C)C)CCOC(C)(C)C1)c1cccs1 (stereo not drawn)
0.6%,4.2,0.0%,-3.8%,O=[N+]([O-])c1cnn(-c2nc(-c3ccco3)cc(C(F)(F)F)n2)c1
1.1%,.,-12.8%,0.0%,COc1ccc(CNC(=O)Cc2cn(C)c3ccccc23)c(OC)c1
9.1%,-18.6,-2.1%,3.4%,Cc1nc2cc(C(=O)N3CCc4ccccc43)ccc2n1-c1ccc(F)c(F)c1
1.2%,-3.2,1.5%,-4.9%,O=C(Nc1cccc(S(=O)(=O)N2CCCCC2)c1)c1c2c(nc3ccccc13)CCN(Cc1ccccc1)C2
-11.0%,4.0,-2.9%,5.6%,O=C(COC(=O)CCNS(=O)(=O)c1cccc(C(F)(F)F)c1)NC(=O)NC1CCCCC1
20.4%,.,.,0.9%,CCCCN(C(=O)C(C)N1C(=O)c2ccccc2C1=O)c1c(N)n(CCCC)c(=O)[nH]c1=O (stereo not drawn)
-2.2%,1.5,-11.6%,-1.8%,O=C1N/C(=N\N=C\c2cccs2)SC1Cc1cccc(Cl)c1 (stereo not drawn)
-6.5%,9.2,-3.3%,3.7%,Cc1cc(S(=O)(=O)N2CCCC(C(=O)Nc3ccc(C(=O)O)cc3)C2)ccc1Cl (stereo not drawn)
-17.3%,.,.,?,CC(C)(C)OC(=O)C[C@@H]1C/C=C\C[C@@H](CC(=O)NCCO)C(=O)NC[C@@H](c2ccccc2)OC1=O
18.3%,.,.,0.0%,CC1CCCN(C(=O)CSc2n[nH]c(-c3cccs3)n2)C1 (stereo not drawn)
1.9%,.,.,0.0%,O=C(Nc1ccc(F)c(F)c1)C1CCN(S(=O)(=O)c2cccs2)CC1
-4.5%,0.3,13.0%,1.3%,O=C(Oc1c(Br)cc([N+](=O)[O-])cc1Br)c1cccnc1
12.0%,-5.4,-17.5%,2.4%,Cc1ccc(O)c(NC(=O)C2CCCCC2)c1
3.3%,4.1[21.1 µM],25.4%,-1.4%,CCOc1ccc(N(C)S(=O)(=O)c2ccc3[nH]cc(C(=O)NCCOC)c(=O)c3c2)cc1
-10.1%,6.4,-1.6%,3.9%,Cc1ccc(C(=O)N2CCC3(CC2)Oc2ccc(Cl)cc2C(=O)C32CC(c3ccc(Cl)cc3)=NO2)s1 (stereo not drawn)
-6.5%,-6.1,-51.7%,-0.1%,CC(C)CSC1=NSC2=NC(=O)/C(=C\c3cccs3)C(=N)N12
-0.7%,-3.2,-3.8%,0.5%,CCn1c(C(C)NC(=O)c2ccc(Cl)cc2)n[nH]c1=S (stereo not drawn)
?,3.4,-7.2%,?,CCOC(=O)c1c(NC2=NS(=O)(=O)c3ccccc32)sc2c1CCC(C)C2 (stereo not drawn)
-14.2%,.,1.1%,4.9%,CCOCCCNC(=S)N1CCC(C(=O)c2ccc(C)cc2)CC1
18.0%,.,-7.1%,4.5%,CCOc1cccc(/C=N/N2C(C)CCCC2C)c1O (stereo not drawn)
0.0%,-4.5,7.3%,-3.1%,O=C(C1=C[C@@H](C2CCCCC2)C[C@@H](OCc2ccc(CO)cc2)O1)N1CCN(Cc2ccc3c(c2)OCO3)CC1
12.1%,-0.1,-3.1%,2.5%,COc1cc(/C=N/NS(=O)(=O)c2ccc(C(C)(C)C)cc2)cc([N+](=O)[O-])c1O
-3.9%,6.4,-3.4%,0.4%,O=C(NCc1ccc2c(c1)OCO2)c1ccco1
-13.0%,0.4,-1.4%,-0.5%,CCc1ccc(-n2c(=O)c3c(C)c(C(=O)N(C)C)sc3n(CC(=O)NCc3ccco3)c2=O)cc1
-11.0%,11.1,?,-2.0%,COc1ccc(-n2cc(-c3ccccc3)[n+]3c2CCCCC3)cc1
-12.8%,-1.2,-0.5%,?,O=C(O)c1ccc(N=Cc2nc(-c3ccco3)oc2O)cc1
-8.1%,.,0.4%,1.3%,COc1ccc(NC(=O)CN2CCN(C(=O)N3CCOCC3)CC2)cc1
-5.0%,-12.7,-6.7%,6.0%,Cc1nn(-c2cc(N3CCCCCC3)ccc2[N+](=O)[O-])c(=O)c2ccccc12
-10.5%,3.2,-0.3%,-1.3%,CCc1cc2cccc(C)c2nc1SCC(=O)Nc1cc(C)on1
-9.9%,2.6,3.4%,-0.5%,CC(C)C1CC(c2ccccc2)(C(CN)CO)CCO1 (stereo not drawn)
1.7%,-0.3,-15.8%,-2.7%,COc1ccc(-c2nnc(SCc3c(C)noc3C)n2N)cc1OC
-11.6%,.,.,5.0%,COC(=O)[C@@]12CCCN1[C@H](c1ccc(-c3ccc(OC)cc3)c(OC)c1)[C@H]1C(=O)N(C)C(=O)[C@H]12
